# Sfp PPTase inh: Sfp phosphopantetheinyl transferase inhibition | Q9F4F7 | Biochemical Sfp PPTase activity, qHTS | Potency, µM, without a hit: max response, negative = inhibition, actives largely listed as inhibitors | 3.5% of 310,000 active | AID 1490; active = well fitted inhibition curve with a large enough effect; inconclusive = small, poorly fitted or top-dose-only effect, or another doubt; inactive = no such curve, though single readings can be large or run the other way;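 also: the enzyme is Sfp with the accession as filed and its product quenches rhodamine fluorescence; potency is read from the fitted curve at half-maximal effect; 0% = enzyme reaction without inhibitor and -100% = no enzyme wells; top concentration of the series not given in the record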
#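 With Hepes-Na pH 7.6 buffer containing 10 mM MgCl2, Sfp (15 nM) modified BHQ-2-YbbR (12.5 uM) using rhodamine-CoA (5 uM). Two reads 30 minutes apart at 525/598 nm yielded each well's rate.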
# Menin MLL FP FL: inhibitors of human menin-MLL interaction, wild-type MLL peptide; Fluorescence polarization, fluorescein-MLL peptide displacement from menin; FP activity change, % at 61.4 µM; 290,000 tested, under 10 active; inconclusive = falling polarisation curve, or a change in total fluorescence; inactive = total fluorescence flat and polarisation flat or rising; no compound was filed as active; the % refers to the polarisation; negative = inhibition;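 also: % of control where 0% means no effect; inhibitors lower the polarisation; unlabelled MLL peptide was the positive control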
# D2 ag: agonists of human D2 dopamine receptor (beta-arrestin); DiscoveRx PathHunter D2 beta-arrestin, luminescence, 90 min; 100% = 57 uM dopamine signal; 0.084% of 360,000 active; activation, % (no concentration beside the values); P14416; in the data active = activation above about 40%; inconclusive = about 15% to 40%; inactive = below about 15%; also: compound concentration not given in the record; the text of the record calls up to 30% inactive
# Target sequence (P14416 whole entry, looked up): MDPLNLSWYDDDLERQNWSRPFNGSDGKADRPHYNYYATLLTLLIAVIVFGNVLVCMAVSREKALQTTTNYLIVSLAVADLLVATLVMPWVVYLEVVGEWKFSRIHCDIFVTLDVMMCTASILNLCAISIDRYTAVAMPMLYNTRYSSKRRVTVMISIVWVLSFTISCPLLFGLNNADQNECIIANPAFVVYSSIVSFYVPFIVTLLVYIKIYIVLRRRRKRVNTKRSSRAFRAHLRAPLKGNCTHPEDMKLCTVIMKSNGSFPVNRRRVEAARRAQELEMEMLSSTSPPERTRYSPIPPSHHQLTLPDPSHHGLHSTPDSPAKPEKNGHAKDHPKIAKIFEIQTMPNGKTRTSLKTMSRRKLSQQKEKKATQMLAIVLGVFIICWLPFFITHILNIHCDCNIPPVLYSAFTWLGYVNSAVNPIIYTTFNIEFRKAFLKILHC
#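 Agonist mode: compounds alone added to overnight-plated D2 PathHunter cells for 90 min at 37 C, with 57 uM final dopamine (EC100) defining full response. Beta-arrestin recruitment detected by chemiluminescent reagent, read after 1 h at ambient temperature.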
# ClpP mod: qHTS Assay for Activators of ClpP; purified B. subtilis ClpP, FRET peptide cleavage, 20 min; Potency, µM (titrated, usually from 57.5 µM), for inactives: top-dose activity change, negative = active; 1.9% of 340,000 active; AID 651965, 2013; active = well fitted falling curve with a large enough effect; inconclusive = small, poorly fitted or top-dose-only effect; inactive = no such curve, though single readings can be large or run the other way; also: potency is read from the fitted curve at half-maximal effect; the source files actives as falling curves though it sought activators and does not explain the sign; nearly all actives have a fitted effect of over 65% in size; many hits overshoot -100%
# Target sequence (P80244 whole entry, looked up): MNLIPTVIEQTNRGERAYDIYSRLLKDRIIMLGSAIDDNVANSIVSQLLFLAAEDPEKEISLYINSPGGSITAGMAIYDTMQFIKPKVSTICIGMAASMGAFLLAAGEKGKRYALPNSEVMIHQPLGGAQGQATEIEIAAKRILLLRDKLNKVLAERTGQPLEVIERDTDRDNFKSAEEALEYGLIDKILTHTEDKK
#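 ClpP 10 microg/mL final, pH 8 Tris/KCl buffer with BSA, glycerol, Tween-20; compound pinned in; FRET-FV substrate; RT 20 min; Ex320/Em430; ΔFRET vs ADEP 5.8 microM, DMSO, no enzyme.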
# gsp antagonist: gsp mutant antagonism. Potency, µM (titrated, usually from 76.9 µM), inactives show at the top dose activity change, negative = inhibition, actives largely listed as inhibitors. 0.4% of 340,000 active. gsp-mutant cells, cAMP HTRF, 30 min; control for the full effect not named in the record. AID 624288; active = falling curve of any shape with a large fitted effect; inconclusive = falling curve, mostly with a smaller effect; inactive = flat or rising curve; cell line not stated here;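 also: intracellular cAMP measured with PDE inhibitor Ro 20-1724 present during compound exposure; potency is read from the fitted curve at half-maximal effect; % is scaled to controls: 0 for no effect and ±100 for the full control effect; nearly all actives have a fitted effect of over 65% in size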
#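 HTRF cAMP read-out (cAMP-d2 plus anti-cAMP antibody-K in lysis buffer, 30 min RT). Before lysis, cells are exposed to compounds with […] for 30 min at 37C in DPBS containing Ca/Mg, BSA and Tween 20.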
# PINK1 modulator: modulators of PINK1 expression. 0.2% of 410,000 active. PINK1 immunofluorescence, high-content cytometry, 24 h. Potency, µM (top dose mostly 76.6 µM), for the others: top-dose activation (PINK1 increase), usual class: activators; active = well fitted activation curve with a large enough effect; inconclusive = small, poorly fitted or top-dose-only effect; inactive = flat fitted curve, though single readings scatter; cell line not stated here;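 also: potency is read from the fitted curve at half-maximal effect; % of control where 0% means no effect; nearly all actives have a fitted effect of over 65% in size; a mitochondrial uncoupler was the plate control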
#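 Decision-based qHTS: stable cells, 24 h exposure to five compound concentrations, CCCP as control. Fixed cells stained for PINK1 plus nuclear, mitochondrial and cell markers, cytometer read.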
# gsp agonist: activates gsp, the McCune-Albright syndrome mutation. Potency, µM (doses to about 76.9 µM), for inactives: top-dose activation (cAMP increase), usual class: activators. 0.13% of 340,000 active. gsp mutant cells, cAMP HTRF, 30 min; control for the full effect not named in the record. AID 624287; active = well fitted activation curve with a large enough effect; inconclusive = small, poorly fitted or top-dose-only effect, or another doubt; inactive = no such curve, though single readings can be large or run the other way; cell line not stated here;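 also: phosphodiesterase inhibitor Ro 20-1724 added with compounds to block cAMP breakdown; potency is read from the fitted curve at half-maximal effect; nearly all actives have a fitted effect of over 60% in size; about a fifth of the inactives were tested at one dose only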
#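 Cells stably selected in G418 were plated at 2000/well, grown 16-24 hr, then given compounds in DMSO with the PDE inhibitor […] (300 uM solution added) for 30 min at 37C; cAMP was read by HTRF.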
# * marks the source's active call; other numbers are inactive results; ? = inconclusive; . = not tested or not shown; & = joins results of further samples; [ ] = another dose, or the depositor's remark.
SMILES,Sfp PPTase inh,Menin MLL FP FL,D2 ag,ClpP mod,gsp antagonist,PINK1 modulator,gsp agonist
Cc1oc(-c2ccc(Cl)cc2)nc1CN1CCCC(C(=O)NCc2cccnc2)C1 (stereo not drawn),-2%,3.1,-2.9,-2.2%,-7%,3.6%[38.3 µM],8%
O=c1c2ccccc2nc(SCc2cccc(F)c2)n1C1CCCC1,4%,2.0,-3.3,-1.9%,-7%,?,3%
CCOc1ccc(NC(=O)NCCN2CCN(c3ccccc3F)CC2)cc1,2%,-0.4,?,-0.6%&-6.2%,18%,-0.4%&1.2%,-1%
COc1ccc(N2CCN(CC(=O)Nc3nc4c(s3)CC(C)CC4)CC2)cc1 (stereo not drawn),-11%,0.3,-2.2,-2.6%,-4%,20%,6%
CCn1c(=O)c(C(=O)NCCN2CCCCC2)c(O)c2ccccc21,13%,4.5,-3.6,?,10%,-2.4%,8%
Cc1ccc(CSc2nnc(NC(=O)Cn3cnc4ccccc4c3=O)s2)cc1,-28%,7.6,-4.0,-0.4%,-18%,0.2%,5%
Cc1ccc(NC(=O)CSc2nnc(-c3cccs3)o2)cc1S(=O)(=O)N1CCCCC1,-2%,.,-0.3,-2.8%,-12%,0.3%,6%
Cc1nc2sc(C(c3cccs3)N3CCN(c4ccccc4)CC3)c(O)n2n1 (stereo not drawn),19%,5.2,-5.3,0.9%,2%,-0.2%,?
COc1cccc(N2CCN(Cc3nc4scc(-c5ccccc5)c4c(=O)[nH]3)CC2)c1,8%,13,1.8,-4.7%,16%,1.8%,-18%
O=C(COC(=O)c1ccc(S(=O)(=O)NCc2ccco2)cc1)Nc1ccc(OC(F)F)cc1,-4%,4.5,-1.6,3.5%,-8%,0.2%,-17%
Nc1ccc2oc(-c3ccc4nc[nH]c4c3)nc2c1,-4%,-0.1,1.3,?,13%,-2.6%,?
Cc1ccc(CCN2CC(C(=O)NC3CCCCC3)CC2=O)cc1 (stereo not drawn),29%,1.3,-4.8,-0.3%,12%,0.5%,17%
Cc1ccc(S(=O)(=O)N2CCOCC2)cc1NC(=O)COC(=O)c1ccc(Br)cc1,.,.,3.8,1.3%,-1%,-0.5%,21%
Cc1c(Cl)cccc1NC(=O)CSc1sc2c(O)cc(=O)[nH]c2c1C#N,?,16,-2.5,.,-7%,-0.2%,-14%
O=C(Nc1ccc(F)c(F)c1)c1cnc(-c2ccccc2)nc1-c1ccccc1,5%,-1.6,3.1,-0.7%,8%,-0.7%,4%
O=C(COc1ccccc1Cl)NCc1ccncc1,9%,0.7,-0.3,0.4%,1%,-2.2%,15%
Cc1cc(C(=O)COC(=O)c2n[nH]c(=O)c3ccccc23)c(C)n1C(C)C,.,.,-3.3,-0.6%,12%,1.1%,5%
O=C(Nc1ccnn1C1CCN(CCCC2CCCC2)CC1)c1ccccc1,11%,1.5,-2.0,-1.8%,-2%,0.7%,-2%
COC(=O)c1sc(C(F)(F)F)c(-c2ccccc2)c1S(=O)(=O)N(C)C,0%,0.4,3.1,-0.8%,-14%,-0.3%,29%[15.4 µM]
COc1ccc(Cc2nnc(SCC(=O)Nc3ccc(C)c(Cl)c3)[nH]c2=O)cc1,.,.,-3.2,.,-12%,0.5%,-11%[15.4 µM]
Nc1ncnc2c1ncn2C1OC(CO)C2OC21 (stereo not drawn),.,.,-1.1,0.9%,.,0.3%,.
O=C(CSc1nc(=O)n(CCCN2CCOCC2)c2c1CCCC2)Nc1cccc(F)c1,.,.,-3.7,-1.0%,-17%,-4.5%,-2%
COc1ccc(S(=O)(=O)Cc2ccc(C(=O)NC3CCCCCC3)o2)cc1,10%,.,-2.2,-2.4%,-9%,-1.1%,10%
Cc1cc(C)c(S(=O)(=O)N2CCN(C3CC(=O)N(c4ccccc4Cl)C3=O)CC2)c(C)c1 (stereo not drawn),.,.,-2.3,-0.2%,-24%,0.5%,10%
O=C(O)C(Cc1c[nH]c2ccccc12)NS(=O)(=O)c1ccccc1 (stereo not drawn),9%,.,-3.2,-3.2%,-5%,1.1%,-22%
COC(=O)C[C@H]1c2cc(C(F)(F)F)ccc2S(=O)(=O)N1Cc1ccc(OC)cc1,.,.,0.3,1.5%&1.8%,-1%,1.0%,-21%
COc1cc(/C=C/C(=O)OCC(=O)NCCc2ccc(F)cc2)ccc1OC(F)F,.,.,0.7,-24%,-13%,-1.0%,-8%
COc1ccc(F)cc1C(=O)C1CCCN(Cc2cnc(N3CCCC3)s2)C1 (stereo not drawn),1%,-6.4,-2.2,.,2%,-0.9%,27%[15.4 µM]
O=C(c1nn(-c2ccccc2)c(=O)c2ccccc12)N1CCN(c2ccccn2)CC1,9%,-12,1.4,-3.0%,-7%,-2.1%[38.3 µM],-23%
CS(=O)(=O)NCCCNc1c(Cl)cccc1[N+](=O)[O-],4%,-4.1,-2.5,-0.6%,?,-0.3%,?
O=C/C=C/c1c(-c2ccccc2)cc2oc3ccccc3cc1-2,-21%,?,-10,.,-7%,18%,16%
CC(C)CCNC(=O)c1ccc2c(c1)N(C)C(=O)c1ccccc1S2,-8%,0.5,-1.8,-0.2%,-11%,6.0%&0.8%,?
Cc1cc(=O)[nH]c(NCc2ccc(Cl)cc2)n1,22%,0.0,0.0,0.4%,-21%,2.5%,1%
O=C(O)c1ccccc1S(=O)(=O)Cc1ccccc1,18%,-3.2,-2.3,-0.7%,2%,.,0%
Cc1cccc(C)c1NC(=O)CSc1nnnn1C,12%,0.5,-3.6,-2.2%,7%,.,12%
O=c1cc(-c2ccc(O)c(O)c2)oc2ccc3ccccc3c12,.,.,2.3,-1.7%,-13%,0.1%,1%
Cc1cc(-c2cc(N)n(-c3ccccc3)n2)c(C)n1C1CCCC1,6%,0.9,-1.0,0.7%,-2%,.,-69%[inhibitor]
COc1ccc2sc(-c3ccc(N(C)C)cc3)c(C#CCCO)c2c1,.,.,-0.9,4.3%,-15%,7.0%,.
CCCNS(=O)(=O)c1ccc(CCC(=O)Nc2cc(Cl)ccc2Oc2ccccc2)cc1,-3%,1.4,2.4,-0.6%,-22%,0.6%,-31%[inhibitor]
C[C@@H]1CN([C@@H](C)CO)C(=O)c2cc(C3=CCCCC3)cnc2O[C@H]1CN(C)C(=O)Nc1cccc(F)c1,.,.,1.1,-2.6%,.,-1.2%,10%
CCOc1cc(C)c(C(C)C)cc1S(=O)(=O)n1cnc(C)c1,9%,2.2,6.0,.,11%,7.6%,?
CCOc1cc(N2CCOCC2)c(OCC)cc1NC(=O)C1CCCC1,8%,3.2,-3.7,1.7%,-4%,-1.6%,?
CC(=O)c1sc(NC(=O)Cc2c(F)cccc2Cl)nc1C,8%,23,-2.9,.,-4%,1.4%,-8%[15.4 µM]
O=C1CSC(c2ccncc2)N1Cc1ccco1 (stereo not drawn),56µM*,-5.0,-2.4,-1.2%,12%,2.7%[38.3 µM],0%
CCOc1ccc(CN2CCN(Cc3nc(C(C)C)cs3)CC2CCO)cc1 (stereo not drawn),16%,0.2,0.8,.,5%,-1.5%,-10%[15.4 µM]
O=c1cc(-c2ccccc2)c2c([nH]1)CCCC2,7%,3.6,3.2,-3.8%,0%,0.3%[38.3 µM],-10%
COc1ccc(CCNC(=O)COc2nsnc2N2CCOCC2)cc1OC,15%,-7.0,0.2,-1.1%,11%,-1.6%,?
Cc1cccc(C)c1NC(=O)CN(C1CCCCC1)S(C)(=O)=O,-3%,-0.7,-1.7,-3.4%,4%,0.3%,0%[15.4 µM]

# Continued, starting with the last 2 of the part before.
SMILES,Sfp PPTase inh,Menin MLL FP FL,D2 ag,ClpP mod,gsp antagonist,PINK1 modulator,gsp agonist
COc1ccc(CCNC(=O)COc2nsnc2N2CCOCC2)cc1OC,15%,-7.0,0.2,-1.1%,11%,-1.6%,?
Cc1cccc(C)c1NC(=O)CN(C1CCCCC1)S(C)(=O)=O,-3%,-0.7,-1.7,-3.4%,4%,0.3%,0%[15.4 µM]
CCN(CCn1cccn1)C(=O)CC1C(=O)NCCN1Cc1cc(OC)cc(OC)c1 (stereo not drawn),-19%,-11,-0.5,-4.2%,9%,0.5%,-29%
NC(=O)c1c(NC(=O)COC(=O)c2ccc(O)c(Cl)c2)sc2c1CCCC2,.,.,5.5,.,-27%,10%,15%
Fc1ccc(CSc2ncnc3c2ncn3C2CCCCO2)cc1 (stereo not drawn),.,.,2.5,2.1%,-8%,4.7%,-23%
CC(C)Cc1nc2ccc(N)cc2[nH]1,19%,4.6,6.8,.,.,-0.3%,2%[15.4 µM]
CC(=O)Nc1cccc(-c2ccnc3c2CC(C)(C(=O)NCc2cccc(Cl)c2)O3)c1 (stereo not drawn),.,.,-1.3,-14%,.,5.3%,.
O=C(/C=C/c1ccccc1Cl)NCCCn1ccnc1,6%,4.5,-0.9,0.6%,-1%,2.0%,1%[15.4 µM]
O=C1NC(=S)SC1=Cc1ccccc1Cl,.,.,-4.6,.,-27%,?,-12%
Cc1ccc(C(=O)NCCc2nc3ccccc3[nH]2)cc1[N+](=O)[O-],3%,1.4,-4.7,0.0%,-14%,-0.4%,8%[15.4 µM]
COc1ccccc1N1CCN(S(=O)(=O)CCNC(=O)CCCc2ccccc2)CC1,.,.,-2.1,.,-13%,3.5%,8%[15.4 µM]
Cc1ccc(-c2nnc(N3CCCCCC3)c3ccccc23)cc1,-16%,4.3,-5.3,-0.1%,?,?,8%[15.4 µM]
COc1ccc(OC)c(N)c1,-25%,-9.1,1.8,1.5%,7%,-2.0%,-42%[inhibitor]
CC(C)(C)[C@@H]1C=C(C(=O)NCc2ccccc2)O[C@H](OCc2ccc(CO)cc2)C1,-4%,-1.3,-2.9,-2.2%,-11%,-1.7%,.
CCOc1[nH]n(-c2ccccc2)c(=O)c1C=Nc1ccc(F)cc1F,24%,-6.7,-0.2,-1.0%,1%,5.0%,-59%[inhibitor]
CCc1ccc(Nc2n[n+](-c3ccccc3)c(-c3ccc(SC)cc3)s2)cc1,6%,-2.8,-3.1,-5.5%,?,35µM*,23%
CC(C)(C)c1ccc(/C=C2\CCn3c2nc2cc(C(=O)O)ccc2c3=O)cc1,-7%,-7.9,-5.6,?,-10%,0.2%,-23%

# Screens as filed in PubChem BioAssay.
